KCNQ2 enhance: potentiators of rat KCNQ2 potassium channel. O88943. CHO-K1 KCNQ2, FluxOR thallium flux fluorescence; stronger effect = higher value. B-score at 10 µM. hit rate 0.54% among 310,000. AID 2239;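 active = fluorescence ratio B-score at least 3 SD of library B-scores, with initial fluorescence B-score within 3 SD, cut at about 5.3 in these data; same plate scores as AID 2156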;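 also: B-score of peak minus minimum over baseline fluorescence ratio after K+ and Tl+ stimulus; positive B-score means potentiation of KCNQ2 with more thallium influx and brighter signal; only the inactives scoring about 0 or higher are listed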
Target sequence (O88943 whole entry, looked up): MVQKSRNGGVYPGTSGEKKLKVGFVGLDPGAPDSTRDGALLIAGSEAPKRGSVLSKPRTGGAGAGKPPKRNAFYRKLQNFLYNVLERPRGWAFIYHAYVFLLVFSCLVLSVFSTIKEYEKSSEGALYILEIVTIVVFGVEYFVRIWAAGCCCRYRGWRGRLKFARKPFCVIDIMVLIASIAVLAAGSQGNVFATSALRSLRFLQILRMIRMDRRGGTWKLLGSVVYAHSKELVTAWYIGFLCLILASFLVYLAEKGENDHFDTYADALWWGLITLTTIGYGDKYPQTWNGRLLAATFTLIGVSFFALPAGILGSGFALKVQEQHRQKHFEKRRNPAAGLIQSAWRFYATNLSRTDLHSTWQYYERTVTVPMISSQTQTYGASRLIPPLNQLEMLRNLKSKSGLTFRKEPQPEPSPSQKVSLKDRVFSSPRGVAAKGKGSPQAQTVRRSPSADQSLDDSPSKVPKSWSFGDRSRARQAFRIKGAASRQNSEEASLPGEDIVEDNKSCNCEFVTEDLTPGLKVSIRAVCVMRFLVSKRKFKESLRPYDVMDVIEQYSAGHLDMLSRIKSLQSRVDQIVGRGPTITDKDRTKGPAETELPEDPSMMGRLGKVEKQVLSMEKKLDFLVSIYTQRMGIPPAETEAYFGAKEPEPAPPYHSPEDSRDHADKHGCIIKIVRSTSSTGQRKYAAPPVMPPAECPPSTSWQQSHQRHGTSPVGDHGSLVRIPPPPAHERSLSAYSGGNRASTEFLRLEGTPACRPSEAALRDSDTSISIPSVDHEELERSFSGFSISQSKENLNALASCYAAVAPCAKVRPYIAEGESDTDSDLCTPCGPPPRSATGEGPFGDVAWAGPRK
KCNQ2 enhance baseline: further read-out of KCNQ2 enhance, marked with its call; B-score; compound at 10 µM; measured here: initial fluorescence intensity artifact check;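 brightness before thallium and not channel activity; 0 = typical well and far values either way flag optical interference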
* = called active by the depositor. Some of the compounds tested, so the mix of outcomes need not match the whole.

For Cc1ccc(C)c(S(=O)(=O)NCCOC(=O)Nc2sc(=S)n(C)c2C)c1 the results were KCNQ2 enhance 0.92 and KCNQ2 enhance baseline 0.
`C=CCOc1ccccc1CNCc1cccnc1` gave KCNQ2 enhance 0.37 and KCNQ2 enhance baseline -0.86.
`COC(=O)c1ccc(CN2CCCC(C(=O)Nc3cccc(-n4cnnn4)c3)C2)cc1` (stereo not given) gave KCNQ2 enhance 2.58 and KCNQ2 enhance baseline 0.3.
`CCOP(=O)(OCC)c1nc(-c2ccc(OC)cc2)oc1N1CCOCC1` gave KCNQ2 enhance 0.75 and KCNQ2 enhance baseline -0.12.
CCC(=O)Nc1ccc2c(c1)C(=O)N(C)C2=O was read as KCNQ2 enhance 1.57 and KCNQ2 enhance baseline 0.74.
`CN(c1ccccc1)S(=O)(=O)c1cccc(C(=O)N2CCN(c3ccccn3)CC2)c1` gave KCNQ2 enhance 0.11 and KCNQ2 enhance baseline 2.42.
For NS(=O)(=O)c1ccc(NC(=S)NC(=O)C2CCCCC2)cc1 the results were KCNQ2 enhance 2.26 and KCNQ2 enhance baseline 0.
`Cn1ccnc1SCC(=O)Nc1nc2c(F)c(F)c(F)cc2s1` gave KCNQ2 enhance 0.16 and KCNQ2 enhance baseline -0.77.
Screening CCN(CC)CCn1c2ccccc2c2nc3ccccc3nc21 returned KCNQ2 enhance 0.66 and KCNQ2 enhance baseline -0.3.
Screening COc1ccc(CN2CCN(S(=O)(=O)c3ccc(NC(C)=O)cc3)CC2)cc1OC returned KCNQ2 enhance 0.02 and KCNQ2 enhance baseline -0.12.
`Cc1csc(=Nc2c(C)n(C)n(-c3ccccc3)c2=O)n1Cc1ccccc1` gave KCNQ2 enhance 0.16 and KCNQ2 enhance baseline -1.09.
Screening c1ccc2c(c1)ccc1ncccc12 returned KCNQ2 enhance 0.05 and KCNQ2 enhance baseline 0.93.
O=C(OCC(=O)N1N=C(c2ccc(Cl)cc2)CC1c1ccco1)c1ccco1 (stereo not given) was read as KCNQ2 enhance 0.11 and KCNQ2 enhance baseline 1.66.
Cc1ccccc1-n1nc2c(c1NC(=O)c1ccco1)CS(=O)(=O)C2 was read as KCNQ2 enhance 0.64 and KCNQ2 enhance baseline -0.7.
`O=C1CC(C(=O)NC2CCCCC2)C2(CCCCC2)O1` (stereo not given) gave KCNQ2 enhance 0.11 and KCNQ2 enhance baseline 0.
`Cc1ccc(NC(=S)N2CCCC2)cc1C` gave KCNQ2 enhance 1.71 and KCNQ2 enhance baseline 1.22.
`NC(=O)c1ccc(CSc2nc3ccccc3s2)cc1` gave KCNQ2 enhance 0.88 and KCNQ2 enhance baseline 0.14.
CCOC(=O)C1CCCN(S(=O)(=O)c2cc(OCC(=O)NC3CCCCC3)c(C)cc2Cl)C1 (stereo not given) was read as KCNQ2 enhance 2.46 and KCNQ2 enhance baseline 0.99.
`Cc1oc(-c2ccccc2Cl)nc1CS(=O)CC(=O)NCc1cccs1` (stereo not given) gave KCNQ2 enhance 2.56 and KCNQ2 enhance baseline 0.02.
For CC1CCCCC1NS(=O)(=O)c1ccc(S(=O)(=O)NCc2ccncc2)cc1 (stereo not given) the results were KCNQ2 enhance 1.05 and KCNQ2 enhance baseline -0.63.

Ordered by count of non-hydrogen atoms (falling): part of the list above
CCOC(=O)C1CCCN(S(=O)(=O)c2cc(OCC(=O)NC3CCCCC3)c(C)cc2Cl)C1 (stereo not given) was read as KCNQ2 enhance 2.46 and KCNQ2 enhance baseline 0.99.
Screening COc1ccc(CN2CCN(S(=O)(=O)c3ccc(NC(C)=O)cc3)CC2)cc1OC returned KCNQ2 enhance 0.02 and KCNQ2 enhance baseline -0.12.
Screening c1ccc2c(c1)ccc1ncccc12 returned KCNQ2 enhance 0.05 and KCNQ2 enhance baseline 0.93.

Following part
For CCC1(CC)Cc2ccccc2C(N)=C1C#N the results were KCNQ2 enhance 1.44 and KCNQ2 enhance baseline 0.65.
For CCn1nc(C)c(NC(=O)c2ccc(Cl)cc2)c1C the results were KCNQ2 enhance 1.13 and KCNQ2 enhance baseline 0.55.
Screening O=C(NCc1ccccc1)c1cnc2n(c1=O)CCS2 returned KCNQ2 enhance 0.02 and KCNQ2 enhance baseline 0.57.
`O=C(CSc1nnc(-c2c[nH]c3ccccc23)o1)c1ccc(-c2ccccc2)cc1` gave KCNQ2 enhance 0.87 and KCNQ2 enhance baseline -0.97.
O=C(O)c1ccc2c(=O)n3c(nc2c1)/C(=C/c1ccccc1C(F)(F)F)CCCC3 was read as KCNQ2 enhance 0.03 and KCNQ2 enhance baseline 1.83.
`Nc1nc2ncc(CNc3ccc(C(=O)N[C@@H](CCC(=O)O)C(=O)O)cc3)nc2c(=O)[nH]1` gave KCNQ2 enhance 0.58 and KCNQ2 enhance baseline 0.49.
`O=C(NNS(=O)(=O)c1ccccc1F)c1sccc1-n1cccc1` gave KCNQ2 enhance 1.16 and KCNQ2 enhance baseline -0.53.
`CC(C)=CC(=O)N1CCC(N2CCC(C(=O)NCC3CCCO3)CC2)CC1` (stereo not given) gave KCNQ2 enhance 1.22 and KCNQ2 enhance baseline -0.03.
O=C(NNC(=O)c1ccc(S(=O)(=O)N2CCCCC2)cc1)c1ccccc1 was read as KCNQ2 enhance 0.02 and KCNQ2 enhance baseline -0.48.
For O=S(=O)(c1ccc(S(=O)(=O)N2CCN(C/C=C/c3ccccc3)CC2)cc1)N1CCCC1 the results were KCNQ2 enhance 0.26 and KCNQ2 enhance baseline 0.08.
`C/C(=N\NC(=O)c1c(Cl)c(C)nn1C)c1cccc(NC(=O)COc2ccccc2)c1` gave KCNQ2 enhance 0.72 and KCNQ2 enhance baseline -1.14.
`COC(=O)Cn1c(=NC(=O)C2COc3ccccc3O2)sc2cc(S(N)(=O)=O)ccc21` (stereo not given) gave KCNQ2 enhance 0.04 and KCNQ2 enhance baseline -0.06.
For CN(CC(=O)Nc1ccc2c(c1)OCO2)S(=O)(=O)c1ccc(F)cc1 the results were KCNQ2 enhance 1.62 and KCNQ2 enhance baseline 0.87.
Screening COc1ccccc1NS(=O)(=O)c1ccc2oc(N)nc2c1 returned KCNQ2 enhance 0.66 and KCNQ2 enhance baseline -0.23.
For CC(=O)Nc1ccc(N2CCN(C(=O)c3cccs3)CC2)cc1 the results were KCNQ2 enhance 1.73 and KCNQ2 enhance baseline -1.3.
Screening Cc1[nH]n(-c2ccccc2)c(=O)c1C=NCc1ccncc1 returned KCNQ2 enhance 0.71 and KCNQ2 enhance baseline -1.33.
`CCOC(=O)c1nc(Nc2ccccc2)c2ccccc2n1` gave KCNQ2 enhance 0.86 and KCNQ2 enhance baseline 0.08.
Screening CN(C)c1ccc(NC(=O)CCCc2ccccc2)cc1 returned KCNQ2 enhance 5.46* and KCNQ2 enhance baseline 1.17*.
Screening CN(CC(=O)O/N=C(\N)c1ccccn1)S(=O)(=O)c1ccc(Br)cc1 returned KCNQ2 enhance 0.23 and KCNQ2 enhance baseline -0.74.
For O=C(c1ccc(S(=O)(=O)NCc2ccco2)cc1)N1CCCC(C(F)(F)F)C1 (stereo not given) the results were KCNQ2 enhance 0.05 and KCNQ2 enhance baseline -2.76.
`Cc1cc(=O)cc(C)[nH]1` gave KCNQ2 enhance 0.84 and KCNQ2 enhance baseline -0.83.
`CCNC(=S)NS(=O)(=O)c1ccccc1` gave KCNQ2 enhance 0.08 and KCNQ2 enhance baseline 0.18.
Screening CCc1ccc(OCC(=O)N/N=C(\C)c2ccc(OC(F)F)cc2)cc1 returned KCNQ2 enhance 0.01 and KCNQ2 enhance baseline 1.57.
For CC1(C)CC(=O)C2=C(C1)N1CCCCC1CC2=O (stereo not given) the results were KCNQ2 enhance 0.23 and KCNQ2 enhance baseline -0.19.
CN(CCO)C(=O)C(c1ccccc1)c1ccccc1 was read as KCNQ2 enhance 0.52 and KCNQ2 enhance baseline -1.42.
For Cc1ccc(OCC(=O)NNC(=S)NCc2ccccc2)cc1 the results were KCNQ2 enhance 0.16 and KCNQ2 enhance baseline -2.04.
COc1cccc(NC(=O)c2cc3c(=O)n4ccccc4nc3n(CC(C)C)c2=N)c1 was read as KCNQ2 enhance 1.45 and KCNQ2 enhance baseline 0.93.
For Clc1cccc(-c2ccc(CNCc3ccccn3)o2)c1 the results were KCNQ2 enhance 4.25 and KCNQ2 enhance baseline 0.57.
`Cc1cc(C)nc(CCNC(=O)CC2C(=O)NCCN2Cc2ccc(F)cc2Cl)n1` (stereo not given) gave KCNQ2 enhance 0.24 and KCNQ2 enhance baseline 0.72.
CS(=O)(=O)N(CC(=O)Nc1ccc2c(c1)OCO2)c1ccc(Cl)cc1 was read as KCNQ2 enhance 0.69 and KCNQ2 enhance baseline 0.05.
`Cc1c(CC(=O)NCC(=O)NCC(=O)O)c(=O)oc2cc3oc4c(c3cc12)CCCC4` gave KCNQ2 enhance 0.03 and KCNQ2 enhance baseline 0.63.
Screening O=C(Nc1ccc2c(c1)OCCO2)c1cnc2n(c1=O)CCS2 returned KCNQ2 enhance 0.18 and KCNQ2 enhance baseline 0.
For CC1=NCCN1S(=O)(=O)c1cccc([N+](=O)[O-])c1 the results were KCNQ2 enhance 1.2 and KCNQ2 enhance baseline -1.92.
CCCn1ncc(CN2CCC(n3nccc3NC(=O)CCc3ccccc3)CC2)c1C was read as KCNQ2 enhance 0.01 and KCNQ2 enhance baseline -1.13.
For CC(=O)Nc1cccc(NC(=O)c2cccc3cccnc23)c1 the results were KCNQ2 enhance 1.52 and KCNQ2 enhance baseline 0.14.
Screening COc1ccc(C2C(C(=O)c3ccco3)=C(O)C(=O)N2Cc2cccnc2)cc1OC (stereo not given) returned KCNQ2 enhance 0.71 and KCNQ2 enhance baseline 0.23.
CCC(C)Sc1nc(C)nc2c1c(=O)n(C)c(=O)n2C (stereo not given) was read as KCNQ2 enhance 1 and KCNQ2 enhance baseline -1.04.
`Cc1cc(C)c2c(=O)[nH]c(SCC(=O)c3ccc(F)c(C)c3)nc2n1` gave KCNQ2 enhance 1.65 and KCNQ2 enhance baseline -0.12.
For O=C(Nc1ccc(S(=O)(=O)N2CCOCC2)cc1)c1ccc2ncsc2c1 the results were KCNQ2 enhance 1.45 and KCNQ2 enhance baseline -0.45.
`Cc1ccc(C)c(NS(=O)(=O)c2c(C)nn(C)c2C)c1` gave KCNQ2 enhance 0.24 and KCNQ2 enhance baseline 0.95.

Entries from the list above that contain a CF3 group (two):
O=C(O)c1ccc2c(=O)n3c(nc2c1)/C(=C/c1ccccc1C(F)(F)F)CCCC3 was read as KCNQ2 enhance 0.03 and KCNQ2 enhance baseline 1.83.
For O=C(c1ccc(S(=O)(=O)NCc2ccco2)cc1)N1CCCC(C(F)(F)F)C1 (stereo not given) the results were KCNQ2 enhance 0.05 and KCNQ2 enhance baseline -2.76.

Next section
Screening COc1ccccc1CC(=O)NC12CC3CC(CC(C3)C1)C2 returned KCNQ2 enhance 3.87 and KCNQ2 enhance baseline 0.11.
CC(=O)CCC(=O)NCCc1ccccc1F was read as KCNQ2 enhance 0.27 and KCNQ2 enhance baseline -0.82.
For CCn1c(SCC(N)=O)nnc1C(C)C the results were KCNQ2 enhance 0.08 and KCNQ2 enhance baseline -1.32.
`Cc1nc2sc3c(O)cc(=O)[nH]c3c2c(C)c1C` gave KCNQ2 enhance 0.84 and KCNQ2 enhance baseline -1.21.
Screening Cc1ccc(NC(=O)c2cccc(Cl)c2)nc1 returned KCNQ2 enhance 0.59 and KCNQ2 enhance baseline -1.1.
O=C(NCC(O)c1ccccc1)c1cccc(S(=O)(=O)N2CCOCC2)c1 (stereo not given) was read as KCNQ2 enhance 0.03 and KCNQ2 enhance baseline -2.69.
CN1CCN(Cc2c(O)ccc3occ(C(=O)c4ccccc4)c23)CC1 was read as KCNQ2 enhance 1.55 and KCNQ2 enhance baseline 0.18.
`CCOC(=O)C1=C(c2ccccc2)NC(SCC(N)=O)=C(C#N)C1c1cccnc1` (stereo not given) gave KCNQ2 enhance 1.12 and KCNQ2 enhance baseline -0.46.
`Cn1c(=O)c2cc(S(=O)(=O)NCCC(=O)Nc3ccc(Cl)cc3)ccc2n(C)c1=O` gave KCNQ2 enhance 0.29 and KCNQ2 enhance baseline -1.46.
`Nc1ccc(C(=O)Nc2ccc3nc(-c4cccnc4)[nH]c3c2)cc1` gave KCNQ2 enhance 0.54 and KCNQ2 enhance baseline -0.83.
`COC(=O)c1ccc(N2C(=O)C3CC(C)=C(C)CC3C2=O)cc1` (stereo not given) gave KCNQ2 enhance 1.65 and KCNQ2 enhance baseline -0.26.
For COc1cccc(NC(=O)C2CCN(S(=O)(=O)c3ccccc3)CC2)c1 the results were KCNQ2 enhance 0.39 and KCNQ2 enhance baseline -0.06.
CCN(CC)S(=O)(=O)c1cccc(NC(=O)c2cncc(Br)c2)c1 was read as KCNQ2 enhance 0.02 and KCNQ2 enhance baseline -1.75.
`N/C(=N\OC(=O)c1cccc(Cn2cc(C(F)(F)F)ccc2=O)c1)c1ccc(Cl)cc1` gave KCNQ2 enhance 0.76 and KCNQ2 enhance baseline 0.01.
Cc1ccc(CNCc2ccco2)cc1 was read as KCNQ2 enhance 0.43 and KCNQ2 enhance baseline -0.27.
Screening CCOC(=O)C1=C(COC(=O)/C=C/c2cccc(Cl)c2)NC(=O)NC1C (stereo not given) returned KCNQ2 enhance 0.27 and KCNQ2 enhance baseline 2.06.
For CCOC(=O)c1sc(SC)c2c1CCCC2=O the results were KCNQ2 enhance 1.11 and KCNQ2 enhance baseline 0.58.
COc1ccc(NC(=O)NCCCN2CCCC2=O)cc1 was read as KCNQ2 enhance 0.37 and KCNQ2 enhance baseline 2.37.
For Cn1cc(C(=O)N2CCN(C(=O)c3ccco3)CC2)c2c3ccccc3n(C)c2c1=O the results were KCNQ2 enhance 0.34 and KCNQ2 enhance baseline -0.98.
Screening Cc1ccc(C)c(/C=N/Nc2ccccn2)c1 returned KCNQ2 enhance 0.69 and KCNQ2 enhance baseline 0.78.
`CCOC(=O)c1c(C2CCN(C(=O)OCC)CC2)nc2ccccn12` gave KCNQ2 enhance 0.9 and KCNQ2 enhance baseline 0.03.
